PMP22 txn: modulates PMP22 transcription in S16 Schwann cells; S16 Pmp22-F2sN Schwann cells (luciferase reporters placed in the Pmp22 gene), FLuc/NLuc coincidence luminescence, 24 h; Potency, µM (series often up to 57.5 µM), inactives show at the highest dose activity change, negative = inhibition, most hits filed as inhibitors; 2% of 43,000 active; AID 1508649; active = clear falling dose curves in both reporters; inconclusive = both reporters move, but less clearly or upward; inactive = either reporter flat; the % is the NLuc reporter signal; also: % is scaled to controls: 0 for no effect and ±100 for the full control effect; some results filed as inactive show a strong effect at the top dose
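S16 Schwann cells carrying FLuc/NLuc coincidence reporter in the Pmp22 3' UTR treated with compound 24 h at 37C; FLuc then NLuc luminescence read sequentially by dual-luciferase reagents.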
HTT prom inh: inhibits huntingtin promoter activity; HEK293 HTT promoter firefly luciferase reporter (activity 0% = vehicle and -100% = no light), 24 h; Potency, µM (top dose mostly 57.5 µM), for inactives: top-dose activity change, negative = inhibition, actives largely listed as inhibitors; 0.93% of 48,000 active; AID 1508623; active = well fitted inhibition curve with a large enough effect; inconclusive = small, poorly fitted or top-dose-only effect; inactive = no such curve, though single readings can be large or run the other way; also: nearly all actives have a fitted effect of over 50% in size
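Quantitative HTS used concentration series of up to 57.5 uM final on HEK293 luciferase reporter cells, 24 h at 37 degrees C. Readout was Dual-Glo firefly luminescence.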
* hit, by the source's call; ? = inconclusive; . = no result given; [ ] = remark or other dose. Potency is read from the fitted curve at half-maximal effect.

SMILES	PMP22 txn	HTT prom inh
CC(C)(C)OC(=O)N[C@H]1CCCCCC=C[C@@H]2C[C@@]2(C(=O)NS(=O)(=O)C2CC2)NC(=O)[C@@H]2C[C@@H](OC(=O)N3Cc4cccc(F)c4C3)CN2C1=O	.	-13%
Cc1cccc(C(=O)Nc2c(C(=O)NCc3ccc(Cl)cc3)sc3nc(C)cc(C)c23)c1	?	?
COc1cc(OC)c(NC(=O)c2cn(C)c(=O)c3cc(OC)c(OC)cc23)cc1Cl	10%	-4%
CCOc1ccc(NC(=O)c2oc3ccccc3c2NC(=O)C(C)(C)C)cc1	7%	-16%
O=C(CSCc1cnn(-c2ccccc2)c1-n1cccc1)Nc1ccc(F)cc1F	-18%	-18%
COc1ccc(C2(Nc3cccc(C(=O)O)c3C)C(=O)c3ccccc3C2=O)cc1	24%	-3%
CCOC(=O)c1c(C)n(-c2ccccc2)c2ccc(OC(=O)c3ccccc3)cc12	?	20µM*
COc1ccc(-c2nc3ccccc3o2)cc1NC(=O)c1cccnc1	-9%	-5%
CCOc1ccc(NC(=O)CCn2cnc3onc(-c4ccc(F)cc4)c3c2=O)cc1	-17%	-7%
COc1cccc(C(=O)Nc2nc3ccc(S(=O)(=O)N4CCCC4)cc3s2)c1	?	?
CCOc1ccc(C(=O)c2cn(Cc3ccccc3)c3c(F)cc(F)cc3c2=O)cc1	?	?
COc1ccc(CCNC(=O)Cc2c(C)c3cc4c(C)coc4cc3oc2=O)cc1OC	-15%	-1%
CCOC(=O)c1c(S(=O)(=O)N2CCC(C(=O)Nc3ccc(C)c(Cl)c3)CC2)c(C)n(C)c1C	-4%	?
CCOC(=O)c1c(C)n(-c2ccccc2)c2ccc(OC(=O)c3ccccc3NC(=O)C(C)C)cc12	?	?
Cc1cccc(NC(=O)c2sc3cccc(Cl)c3c2Cl)c1	?	79%[activator]
CC1CCCCN1C(=O)CCS(=O)(=O)c1cc2c(cc1Cl)NC(=O)CO2 (stereo not drawn)	-5%	-5%
CCOCCCNC(=O)c1[nH]c2cc(C)ccc2c1Sc1ccc(Cl)cc1	43%	9%
COCCCNC(=O)c1ccc(Cn2c(=O)c3ccccc3n(CC(=O)Nc3c(C)cccc3C)c2=O)cc1	?	-9%
COc1ccccc1NC(=O)C1=C(C)Nc2nc(SCc3ccccc3F)nn2C1c1ccncc1 (stereo not drawn)	-7%	1%
CC(C)(C)C(=O)NC1(C(F)(F)F)NC(=O)N(c2ccc(F)cc2)C1=O (stereo not drawn)	3%	-16%
Cn1c(=O)cc(OCC(=O)N2CCN(c3ccccc3F)CC2)c2ccccc21	?	-4%
Cc1cccc(Cn2c(SCc3ccc(C(=O)NC4CCCC4)cc3)nc3cccnc32)c1	-8%	?
O=C(NCc1ccccc1)c1cccn1-c1nnc(N2CCCCC2)s1	1%	-22%
COc1cc2[nH]c(=O)n(Cc3ccc(C(=O)NCc4ccc(C)cc4)cc3)c(=O)c2cc1OC	?	-23%
COC(=O)c1c(-c2ccc(Cl)cc2)noc1N1CCN(c2ccc(OC)cc2)CC1	6µM*	7%
CC(C)NC(=O)c1ccc2c(c1)nc1n2CCCCC1	5%	71%[activator]
COc1ccc(CCNC(=O)Cn2c(=O)n(-c3ccccc3)c(=O)c3c(C)c(C)sc32)cc1OC	?	-17%
CCN(CC)c1cc(C)c2cc(NC(=O)/C=C/c3ccccc3Cl)ccc2n1	12µM*	-6%
Cc1cc(C)cc(Oc2nc3c(C)cccn3c(=O)c2/C=C(\C#N)c2nc3ccccc3s2)c1	?	-13%
CCCCN(CC)CCCNC(=O)c1cn(CC)c2ccc(S(=O)(=O)N3CCOCC3)cc2c1=O	-3%	-9%
COc1cc(C)ccc1OCCSc1nc2ccc(NC(C)=O)cc2s1	-6%	-25%
CCc1ccc(S(=O)(=O)c2cn(CC)c3cc(N4CCOCC4)c(F)cc3c2=O)cc1	-24%	0%
CCc1ccc(NC(=O)CCS(=O)(=O)c2ccc3c(c2)oc(=O)n3C)cc1	-3%	-7%
CCOc1ccc(CNC(=O)C2CCN(S(=O)(=O)c3ccc4c(ccn4C)c3)CC2)cc1	38%	0%
Cc1cccc(NC(=O)C2CCCN(S(=O)(=O)c3c(C)[nH]c(=O)[nH]c3=O)C2)c1C (stereo not drawn)	2%	-15%
Cc1ccc(-c2nc3cccnc3s2)cc1NC(=O)Cc1ccccc1	14%	50%[activator]
COc1cc(Cl)c(C)cc1NC(=O)Cn1c2ncccc2c(=O)n1-c1ccccc1	-9%	1%
COCC(C)NC(=O)c1cnn2c(C(F)F)cc(-c3ccccc3)nc12 (stereo not drawn)	-39%	-11%
CCc1cccc(C)c1Nc1c(-c2ccc(N3CCOCC3)cc2)nc2ncccn12	1%	-18%
CCOc1ccc(N(CC)S(=O)(=O)N2CCCC(C(=O)NCc3ccccc3OCC)C2)cc1 (stereo not drawn)	?	?
CC(=O)Nc1ccc(OCc2cc(=O)n3ccccc3n2)cc1	-2%	45%[activator]
CCC(C)NC(=O)c1ccc2c(c1)N(Cc1ccccc1)C(=O)c1ccccc1S2(=O)=O (stereo not drawn)	-3%	-16%
COCCCNC(=O)CCc1c(C)nc2cc(-c3ccc(Cl)cc3)nn2c1C	-27%	?
Cn1c(=O)c2c(-c3ccc(Cl)cc3)n(Cc3ccc(Cl)cc3)cc2n(C)c1=O	-19%	-10%
COc1ccc2cc(-c3nc4ccc(C(=O)O)cc4[nH]3)c(=O)oc2c1	-1%	?
CN(Cc1ccccc1)C(=O)c1cc2c(=O)n(C)c3ccccc3c2s1	-2%	9%
Cc1ccc(C)c(NC(=O)CSc2cn(CC(=O)N3CCCCC3)c3ccccc23)c1	?	-8%
CCn1cc2nc(SCC(=O)Nc3ccc(C)cc3)n(Cc3ccc(C)cc3)c(=O)c2n1	?	?
COc1cccc(-n2c(=O)c3cc(OC)c(OC)cc3n(CC(=O)Nc3ccc(F)cc3)c2=O)c1	?	-12%
O=C(CN1C(=O)COc2ccc(S(=O)(=O)N3CCCCCC3)cc21)Nc1cccc(Cl)c1	-22%	?
Continued:
SMILES	PMP22 txn	HTT prom inh
CCOC(=O)c1c(C)oc2nc(C)nc(NCCCN3CCN(c4cccc(C)c4)C(C)C3)c12 (stereo not drawn)	?	-13%
CCOC(=O)c1sc2ncn(CC(=O)Nc3ccc(C)cc3Br)c(=O)c2c1C	-2%	-7%
Cc1ccc(NC(=O)CSCn2nnc3c(=O)[nH]c(Cc4ccc(F)cc4)nc32)c(C)c1	51%	-16%
Cc1ccccc1OCc1ccc(-c2nc(C#N)c(N3CCN(c4ccccc4)CC3)o2)o1	1%	-23%
CSc1cccc(NC(=O)Cn2cnc(S(=O)(=O)N3CCCC3)c2)c1	-12%	-21%
CCOC(=O)c1cnc2c(ccc3ccccc32)c1Nc1ccc(C(C)=O)cc1	?	-29%
CCn1cc(C(=O)NCCOC)c(=O)c2cc(S(=O)(=O)N3CCOCC3)ccc21	-5%	-14%
Cc1cc(C)cc(NC(=O)CSc2cc(C)[nH]c(=O)n2)c1	-20%	-1%
Cc1ccc(CNC(=O)C2CCN(S(=O)(=O)c3c(C)noc3/C=C/c3c(C)cc(C)cc3C)CC2)cc1	-11%	-16%
O=C(Nc1c(-c2ccc(F)cc2)nc2ccccn12)c1ccccc1F	-3%	-8%

Three entries from above, as a markdown table:
| SMILES | PMP22 txn | HTT prom inh |
| --- | --- | --- |
| Cc1cc(C)cc(NC(=O)CSc2cc(C)[nH]c(=O)n2)c1 | -20% | -1% |
| Cc1ccc(CNC(=O)C2CCN(S(=O)(=O)c3c(C)noc3/C=C/c3c(C)cc(C)cc3C)CC2)cc1 | -11% | -16% |
| O=C(Nc1c(-c2ccc(F)cc2)nc2ccccn12)c1ccccc1F | -3% | -8% |

(more compounds)
SMILES	PMP22 txn	HTT prom inh
CCOC(=O)c1ccc(NC(=O)CN2C(=O)c3cccnc3Oc3ccc(Cl)cc32)cc1	-37%	1%
Cc1ccc(C(=O)c2cn(Cc3ccccc3F)c3cc4c(cc3c2=O)OCO4)cc1	5%	8%
COc1ccccc1NC(=O)C(=O)c1cc(C)n(-c2ccccc2F)c1C	?	-29%
Cc1csc2nc(COc3ccc(NC(=O)COc4ccccc4)cc3)cc(=O)n12	-36%	5%
Cc1sc(-n2cccc2)c(C(C)NC(=O)Nc2cccc(C(F)(F)F)c2)c1C (stereo not drawn)	?	?
COc1ccc(-c2nc(CSCC(=O)NCCc3ccc(OC)c(OC)c3)c(C)o2)cc1	-25%	?
CCOC(=O)c1ccc(NC(=O)CCn2cnnn2)cc1	-2%	7%
O=C(c1ccccc1Br)N(Cc1ccco1)C1CCS(=O)(=O)C1 (stereo not drawn)	-14%	0%
Cn1nnnc1SCCCNCc1ccccc1OCc1ccccc1F	-81%	?
COc1cc(NC(=O)Cn2nc3c(cc2=O)CC(C)CC3)cc(OC)c1OC (stereo not drawn)	-10%	-7%
Cc1ccc(CNC(=O)c2ccc(CSCc3cccc(C)c3)o2)cc1	-31%	-13%
Cc1ccc(-c2cn3c(n2)sc2cc(C(=O)NCCC4=CCCCC4)ccc23)cc1	-8%	52%[activator]
Cc1nn(CC(=O)NCc2cccc(F)c2)c(=O)c2c(C)n(-c3ccc(Cl)cc3)nc12	-16%	-20%
COc1ccc(N(C)S(=O)(=O)c2ccc3c(c2)n(C)c(=O)c(=O)n3C)cc1	-26%	6%
CCc1cc2c(cc3c(=O)n(CC(=O)NCCc4ccc(OC)cc4OC)nc(CC)n32)s1	-4%	-6%
O=C(NC(=O)c1cccc(F)c1)Nc1ccc(-c2cc(C(F)(F)F)nn2-c2ccccc2)cc1	?	-21%
COc1ccc(Cc2c(C)nn(-c3nc(C)c(C(=O)Nc4cccc(C(C)=O)c4)s3)c2C)cc1	?	?
Cc1ccc(N2CC(C(=O)NCc3nnnn3-c3ccc(C)c(C)c3)CC2=O)cc1 (stereo not drawn)	-4%	7%
Cc1c(Cl)cccc1N1C(N)=C(C#N)C(c2cc(CN3CCOCC3)cs2)C2=C1CCCC2=O (stereo not drawn)	7.2µM*	-17%
COc1ccc(C(=O)c2oc3ccccc3c2NC(=O)COc2c(C)cc(C)cc2C)cc1	-14%	0%
O=C(CN1CCN(S(=O)(=O)c2cc(Cl)ccc2Cl)CC1)Nc1cccc(F)c1	?	-25%
CCS(=O)(=O)N1CCc2cc(C(=O)Nc3cccc(C(C)=O)c3)ccc21	23%	20%
CCN(C(=O)Cn1c(C(=O)OC)cc2sc(Cl)cc21)c1cccc(C)c1	-60%	-5%
Cc1ccc(NC2=C(c3ccc(C(F)(F)F)cc3)C(=O)c3ccccc32)cc1C	-10%	21%
Cc1ccc(Nc2c(-c3ccccc3O)nc3cc(C)ccn23)cc1	-40%	-28%
Cc1ccccc1C1CC(=O)Nc2ccc3ccccc3c21 (stereo not drawn)	?	?
C=Cc1ccc(Cn2c(C(=O)O)c(CNCc3cccs3)c3ccc(C)cc32)cc1	-4%	-28%
CCOC(=O)C(=O)CCCCCCl	.	-3%
Cc1ccc(C)c(Oc2nc3c(c(=O)n(C)c(=O)n3C)n2Cc2ccccc2)c1	?	16%
Cc1ccc2onc(CC(=O)N(C)c3ccccc3)c2c1	?	-9%
CCc1c(C)nc2nncn2c1Nc1ccc(C)c(F)c1	?	-36%
Cc1ccc(Nc2nc(C)nc(N)c2S(=O)(=O)c2ccccc2)cc1	-13%	-7%
COc1ccc(-n2ncc(C(=O)N3CCOCC3)c2C2CCN(C(=O)OC(C)(C)C)CC2)cc1	-8%	11%
CCc1nc2ccc(C(=O)NCCc3ccc(OC)c(OC)c3)cc2nc1CC	?	3%
Cc1ccc2occ(CC(=O)Nc3nnc(C(C)C)s3)c2c1	8%	-30%
COc1ccccc1N1CCN(C(c2ccc(Cl)cc2)c2nnc(-c3cccc(F)c3)o2)CC1 (stereo not drawn)	-75%	?
Oc1ccc(-c2nc3ccccn3c2Nc2ccc3c(c2)OCCO3)cc1	-8%	-20%
CCCCOc1cccc(NC(=O)CSc2nnc(C)s2)c1	-28%	-13%
Cc1cc(C)c2c(=O)cc(C(=O)Nc3sc4c(c3C#N)CCCC4)oc2c1	0%	15%
COc1cccc(/C=C/c2nc(C#N)c(NC3CCCCC3)o2)c1	-35%	-1%
Cc1ccc(C2c3[nH]c4ccccc4c3CCN2C(=O)CSCc2ccc(F)cc2)cc1 (stereo not drawn)	-20%	?
Cc1cc(C)c2c(=O)nc(SCc3ccccc3C)n(C3CC3)c2n1	?	-3%

Part of the list above in a different format.
Results follow in this order: PMP22 txn | HTT prom inh
> CCc1c(C)nc2nncn2c1Nc1ccc(C)c(F)c1
  ? | -36%
> Cc1ccc(Nc2nc(C)nc(N)c2S(=O)(=O)c2ccccc2)cc1
  -13% | -7%
> COc1ccc(-n2ncc(C(=O)N3CCOCC3)c2C2CCN(C(=O)OC(C)(C)C)CC2)cc1
  -8% | 11%
> CCc1nc2ccc(C(=O)NCCc3ccc(OC)c(OC)c3)cc2nc1CC
  ? | 3%
> Cc1ccc2occ(CC(=O)Nc3nnc(C(C)C)s3)c2c1
  8% | -30%
> COc1ccccc1N1CCN(C(c2ccc(Cl)cc2)c2nnc(-c3cccc(F)c3)o2)CC1 (stereo not drawn)
  -75% | ?
> Oc1ccc(-c2nc3ccccn3c2Nc2ccc3c(c2)OCCO3)cc1
  -8% | -20%

Bioassay records: PubChem, National Center for Advancing Translational Sciences (NCATS)
